PMP22 txn = modulators of PMP22 gene transcription in S16 Schwann cells | S16 Pmp22-F2sN Schwann cells (luciferase reporters placed in the Pmp22 gene), FLuc/NLuc coincidence luminescence, 24 h | Potency, µM (series often up to 57.5 µM), for inactives: at the highest dose activity change, negative = inhibition, hits mostly inhibitors | actives 2% (n = 43,000) | AID 1508649; active = clear falling dose curves in both reporters; inconclusive = both reporters move, but less clearly or upward; inactive = either reporter flat; the % is the NLuc reporter signal; note: % is set by controls: 0 for no effect and ±100 for the full control effect; some results filed as inactive show a strong effect at the top dose
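S16(c9) Schwann cells with FLuc/NLuc coincidence reporter in the Pmp22 3' UTR; compounds pin-transferred, 24 h at 37C. Dual-luciferase read: FLuc first, then NLuc after Stop&Glo, each 10 min at room temperature.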
HTT promoter inh = inhibitors of huntingtin promoter activity; HEK293 HTT promoter firefly luciferase reporter (activity 0% = vehicle and -100% = no light), 24 h; Potency, µM (titrated, usually from 57.5 µM), for inactives: top-dose activity change, negative = inhibition, hits mostly inhibitors; actives 0.93% (n = 48,000); active = well fitted inhibition curve with a large enough effect; inconclusive = small, poorly fitted or top-dose-only effect; inactive = no such curve, though single readings can be large or run the other way; note: nearly all actives have a fitted effect of over 50% in size
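Firefly luciferase readout (Dual-Glo, 10 min RT) after 24 h, 37 °C compound exposure (final up to 57.5 uM) of HEK293 reporter cells cultured 24 h beforehand; PTC124 at 50 uM final as control inhibitor; activity scaled vehicle 0%, zero RLU -100%.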
Active calls of the source: *; [ ] = dose if it differs, or a comment. Potency is the fitted concentration of half-maximal effect.

What do the screens show for `COc1ccccc1NC(=O)C1=C(C)Nc2c(C(=O)Nc3ccc(C)cc3)cnn2C1c1cccc(OC)c1OC` (stereo unspecified)?
PMP22 txn: 1%; HTT promoter inh: 14%

Results for O=C(Nc1ccc2nc(SCC(=O)N3CCc4ccccc43)sc2c1)c1ccc(Cl)cc1 ?
PMP22 txn: inconclusive; HTT promoter inh: 1%

What do the screens show for `CC(C)Cn1c(=O)c2ccccc2n2c(CCC(=O)Nc3cccc(Cl)c3)nnc12`?
PMP22 txn: inconclusive; HTT promoter inh: -4%

Results for CC1CCN(C(=O)Cn2cc(SCc3ccccc3)c3ccccc32)CC1 ?
PMP22 txn: inconclusive; HTT promoter inh: -15%

How did O=C(Nc1cnc(N2CCC(N3CCCCC3)CC2)c(C(=O)O)c1)c1ccc(Br)cc1 do in these assays?
PMP22 txn: -7%; HTT promoter inh: -13%

Results for CN(Cc1ccco1)S(=O)(=O)c1nnc(NC(=O)c2ccccc2Cl)s1 ?
PMP22 txn: 35%; HTT promoter inh: -8%

Results for CSc1ccc(C(=O)Nc2ccc(-c3nc4ccccc4s3)c(O)c2)cc1 ?
PMP22 txn: -33%; HTT promoter inh: -3%

What do the screens show for `O=C(NCCc1ccccc1Cl)c1cc2ccccn2n1`?
PMP22 txn: -3%; HTT promoter inh: 51%[activator]

What do the screens show for `Cc1ccc2oc(-c3ccc(C)c(NC(=O)/C=C/c4ccco4)c3)nc2c1`?
PMP22 txn: inconclusive; HTT promoter inh: -24%

How did CCOC(=O)[C@H](CCc1ccccc1)N[C@@H](C)C(=O)N1CCC[C@H]1C(=O)O do in these assays?
HTT promoter inh: 8%

How did CCc1ccc(NC(=O)CSC2=Nc3ccccc3C3=NC(CCC(=O)NCc4ccco4)C(=O)N23)cc1 (stereo unspecified) do in these assays?
PMP22 txn: -6%; HTT promoter inh: -18%

What do the screens show for `CCCCCCCCCCCC(CC1OC(=O)C1CCCCCC)OC(=O)C(CC(C)C)NC=O` (stereo unspecified)?
HTT promoter inh: -7%

Results for CCc1ccc(CNCc2c(C(=O)O)c(C)n(Cc3c(F)cccc3Cl)c2C)cc1 ?
PMP22 txn: -14%; HTT promoter inh: -14%

What do the screens show for `Cc1cc(-c2ccccc2)nc2cc(C(=O)Nc3ccc(Cl)c(Cl)c3)nn12`?
PMP22 txn: -3%; HTT promoter inh: -1%

What do the screens show for `COC(=O)c1cnn2c(C)c(Cc3c(C)cc(C)cc3C)c(C)nc12`?
PMP22 txn: -25%; HTT promoter inh: -1%

How did CCc1ccc(NC(=O)Cn2ncc3c(C)n(Cc4cccc(Cl)c4)c(C)c3c2=O)cc1 do in these assays?
PMP22 txn: -7%; HTT promoter inh: 3%

Results for Cc1cccc(C(=O)NNc2ncnc3c2cnn3-c2ccc(C)c(Cl)c2)c1 ?
PMP22 txn: inconclusive; HTT promoter inh: inconclusive

What do the screens show for `N#Cc1c(C(F)(F)F)cc(-c2cccs2)nc1SCC(=O)Nc1cccc(Br)c1`?
PMP22 txn: -1%; HTT promoter inh: -21%

How did COc1cc(CN(C(=O)COc2ccc(F)cc2)c2ccccn2)cc(OC)c1OC do in these assays?
PMP22 txn: inconclusive; HTT promoter inh: -12%

Results for COc1ccccc1C(=O)Nc1ccc(-c2cc(C(F)(F)F)nn2-c2ccccc2)cc1 ?
PMP22 txn: inconclusive; HTT promoter inh: inconclusive

How did COc1ccccc1C(=O)Nc1cccc(OCc2cc(=O)n3c4c(sc3n2)CCCC4)c1 do in these assays?
PMP22 txn: 0%; HTT promoter inh: 3%

Results for COc1ccc(NC(=O)CCCN2C(=O)C(c3ccccc3)Oc3cccnc32)cc1OC (stereo unspecified) ?
PMP22 txn: -35%; HTT promoter inh: inconclusive

How did Cc1c(Cl)cccc1-n1ncc(C(=O)N2CCc3ccccc3C2)c1C1CCN(C(=O)OC(C)(C)C)CC1 do in these assays?
PMP22 txn: inconclusive; HTT promoter inh: -13%

What do the screens show for `CCCOc1ccc(C(=O)Nc2sc3c(c2C(=O)OCC)CCCCC3)cc1`?
PMP22 txn: 2%; HTT promoter inh: -3%

How did COc1cccc(N2CCN(C(=O)C3CCCN(S(=O)(=O)c4cccc5nsnc45)C3)CC2)c1 (stereo unspecified) do in these assays?
PMP22 txn: inconclusive; HTT promoter inh: inconclusive

How did O=C(CS(=O)(=O)c1cccc2nsnc12)N1CCN(c2ccccc2)CC1 do in these assays?
PMP22 txn: -21%; HTT promoter inh: 3%

How did COc1ccc(Cl)cc1Nc1cc(C)nc2nc(-c3ccccc3C)nn12 do in these assays?
PMP22 txn: 0%; HTT promoter inh: -4%

Results for COc1ccccc1CNC(=O)c1sc2nc3n(c(=O)c2c1C)CCC3 ?
PMP22 txn: -10%; HTT promoter inh: 13%

What do the screens show for `COc1ccc(-c2cc(-c3ccccc3)c(C#N)c(SCC(O)CS(=O)(=O)Cc3ccc(Cl)cc3)n2)cc1` (stereo unspecified)?
PMP22 txn: -10%; HTT promoter inh: -28%

Results for CCOc1ccc(C2c3c(oc4ccc(C)cc4c3=O)C(=O)N2CCCN(C)C)cc1OC (stereo unspecified) ?
PMP22 txn: 8%; HTT promoter inh: -3%

What do the screens show for `Cc1c(C(=O)Nc2ccc(F)c(Cl)c2)sc2nc3n(c(=O)c12)CCC3`?
PMP22 txn: inconclusive; HTT promoter inh: 38%[activator]

Results for COc1ccc(C2=C(C)C(=NCc3ccc(OC(C)C)cc3)NS2(=O)=O)cc1 ?
PMP22 txn: 3%; HTT promoter inh: -12%

Results for COc1cc(NC(=O)c2cnc3c(-c4ccc(F)cc4)c(C)nn3c2C)cc(OC)c1 ?
PMP22 txn: inconclusive; HTT promoter inh: inconclusive

How did O=C(NC1CCCCCC1)c1ccc(CS(=O)c2cccc(Cl)c2)o1 (stereo unspecified) do in these assays?
PMP22 txn: -14%; HTT promoter inh: -21%

How did COc1ccccc1NCc1cccn1-c1nnc(N2CCOCC2)s1 do in these assays?
PMP22 txn: 0%; HTT promoter inh: 3%

Results for CCOc1ccc(-n2nc(CO)c(C(=O)NCc3cccs3)n2)cc1 ?
PMP22 txn: -26%; HTT promoter inh: inconclusive

How did Cc1ccc(C2c3[nH]c4ccccc4c3CCN2C(=O)c2ccccc2Br)cc1 (stereo unspecified) do in these assays?
PMP22 txn: inconclusive; HTT promoter inh: -39%

Results for O=C(/C=C/c1cn(CC(O)CN2CCCCCC2)c2ccccc12)c1ccc(Br)cc1 (stereo unspecified) ?
PMP22 txn: inconclusive; HTT promoter inh: -14%

Results for O=S(=O)(c1ccc(Br)cc1)c1nnn2c1nc(N1CCOCC1)c1sccc12 ?
PMP22 txn: inconclusive; HTT promoter inh: 7%

How did Cc1cc(C)cc(N2C(=O)N(Cc3cc(=O)n4ccccc4n3)c3ccccc3S2(=O)=O)c1 do in these assays?
PMP22 txn: -14%; HTT promoter inh: inconclusive

What do the screens show for `Cc1oc2ncn(CC(C)C)c(=O)c2c1C(=O)N1CCN(c2cccc(C(F)(F)F)c2)CC1`?
PMP22 txn: inconclusive; HTT promoter inh: -32%

What do the screens show for `COc1ccc(-n2c(-c3ccco3)nc3c(cnn3-c3ccc(Cl)cc3)c2=O)cc1`?
PMP22 txn: inconclusive; HTT promoter inh: 35µM*

What do the screens show for `COc1ccccc1NC(=O)CSC1=Nc2ccccc2C2=NC(CC(=O)NCc3ccccc3)C(=O)N12` (stereo unspecified)?
PMP22 txn: -5%; HTT promoter inh: -6%

How did Nc1c(C(=O)Nc2ccc(Br)cc2)sc2nc(-c3ccncc3)ccc12 do in these assays?
PMP22 txn: -14%; HTT promoter inh: -3%

What do the screens show for `CCCCN(C)CCNC(=O)Cn1ncc2c([nH]c3ccccc32)c1=O`?
PMP22 txn: -9%; HTT promoter inh: -5%

What do the screens show for `COc1ccc(/C=C/c2nc3ccccc3c(=O)n2-c2cccc(C(F)(F)F)c2)cc1`?
PMP22 txn: inconclusive; HTT promoter inh: inconclusive

Results for Cc1cccc(N(CC(=O)NCc2ccccc2)S(C)(=O)=O)c1C ?
PMP22 txn: -9%; HTT promoter inh: -12%

What do the screens show for `O=c1[nH]c(=O)n([C@H]2C[C@H](O)[C@@H](CO)O2)cc1C(F)(F)F`?
HTT promoter inh: -15%

How did CCC(Sc1nc2cc3c(cc2c(=O)n1CCCCCC(=O)NCc1ccc2c(c1)OCO2)OCO3)C(=O)NCCCOC (stereo unspecified) do in these assays?
PMP22 txn: -5%; HTT promoter inh: -11%

Results for CCc1ccc(-c2cn3c(n2)sc2cc(C(=O)NC4CCCCCC4)ccc23)cc1 ?
PMP22 txn: -6%; HTT promoter inh: -13%

What do the screens show for `Cc1ccc(CNC(=O)c2ccc(CS(=O)(=O)Cc3ccc(C)cc3)o2)cc1`?
PMP22 txn: -14%; HTT promoter inh: inconclusive

Results for COc1ccc(-c2cc(C(C)=O)c(C)n2CCC(=O)Nc2ccc(C)cc2Cl)cc1 ?
PMP22 txn: -25%; HTT promoter inh: -39%

How did O=C(CN1C(=O)c2ccccc2Sc2ncccc21)Nc1cccc(C(F)(F)F)c1 do in these assays?
PMP22 txn: -28%; HTT promoter inh: inconclusive

Results for CC(C)(C)C(=O)Cn1c(=O)n(-c2ccccc2)c(=O)c2c3c(sc21)CCC3 ?
PMP22 txn: 9%; HTT promoter inh: -6%

What do the screens show for `Cc1c(Cl)cccc1NC(=O)C(C)n1c(=O)cc(-c2ccccc2)c2c(C)nn(C)c21` (stereo unspecified)?
PMP22 txn: -15%; HTT promoter inh: 8%

Results for Cc1ccc(CCNC(=O)c2ccc(CS(=O)(=O)Cc3cccc(C)c3)o2)cc1 ?
PMP22 txn: inconclusive; HTT promoter inh: -26%

How did CN1CCN(C(c2ccccc2)c2sc3nc(-c4ccco4)nn3c2O)CC1 (stereo unspecified) do in these assays?
PMP22 txn: 16%; HTT promoter inh: 0%

What do the screens show for `CCOc1ccc(CCNC(=O)c2c3c(nc4ccccc24)C(=O)N(C2CCCCC2)C3)cc1`?
PMP22 txn: -17%; HTT promoter inh: -34%

How did COc1ccc(NC(=O)c2cc(S(=O)(=O)N3CCOCC3)ccc2OC)cc1 do in these assays?
PMP22 txn: 42%; HTT promoter inh: -15%

What do the screens show for `O=S(=O)(Nc1ccccc1C(F)(F)F)c1ccc(N2CCCCS2(=O)=O)cc1`?
PMP22 txn: -8%; HTT promoter inh: -25%

What do the screens show for `Cc1ccc(-n2nc3c(N4CCC(C(=O)NCCc5ccccc5C)CC4)nnc(C)c3c2C)cc1`?
PMP22 txn: 9.5µM*; HTT promoter inh: inconclusive

Results for COc1ccc(-c2onc(C)c2C)cc1S(=O)(=O)N(C)Cc1ccccc1 ?
PMP22 txn: inconclusive; HTT promoter inh: inconclusive

How did CCN(CC)c1ccc(CNCCCSc2nnnn2C)cc1 do in these assays?
PMP22 txn: -19%; HTT promoter inh: -15%

What do the screens show for `CCN1CCN(C(c2ccccc2Cl)c2c(O)cc(C)n(Cc3ccco3)c2=O)CC1` (stereo unspecified)?
PMP22 txn: -37%; HTT promoter inh: 1%

How did Cc1nn(-c2ccccc2)c(OC(=O)c2cccc(Br)c2)c1S(=O)(=O)c1ccccc1 do in these assays?
PMP22 txn: 19%; HTT promoter inh: -18%

What do the screens show for `CCOC(=O)c1cnc2ccc(OCC)cc2c1Nc1ccc(OCc2ccccc2Cl)cc1`?
PMP22 txn: inconclusive; HTT promoter inh: inconclusive

Entries listed so far that have a CF3 group:
What do the screens show for `N#Cc1c(C(F)(F)F)cc(-c2cccs2)nc1SCC(=O)Nc1cccc(Br)c1`?
PMP22 txn: -1%; HTT promoter inh: -21%

Results for COc1ccccc1C(=O)Nc1ccc(-c2cc(C(F)(F)F)nn2-c2ccccc2)cc1 ?
PMP22 txn: inconclusive; HTT promoter inh: inconclusive

What do the screens show for `Cc1oc2ncn(CC(C)C)c(=O)c2c1C(=O)N1CCN(c2cccc(C(F)(F)F)c2)CC1`?
PMP22 txn: inconclusive; HTT promoter inh: -32%

What do the screens show for `COc1ccc(/C=C/c2nc3ccccc3c(=O)n2-c2cccc(C(F)(F)F)c2)cc1`?
PMP22 txn: inconclusive; HTT promoter inh: inconclusive

What do the screens show for `O=c1[nH]c(=O)n([C@H]2C[C@H](O)[C@@H](CO)O2)cc1C(F)(F)F`?
HTT promoter inh: -15%

How did O=C(CN1C(=O)c2ccccc2Sc2ncccc21)Nc1cccc(C(F)(F)F)c1 do in these assays?
PMP22 txn: -28%; HTT promoter inh: inconclusive

What do the screens show for `O=S(=O)(Nc1ccccc1C(F)(F)F)c1ccc(N2CCCCS2(=O)=O)cc1`?
PMP22 txn: -8%; HTT promoter inh: -25%

Compound activity: PubChem, National Center for Advancing Translational Sciences (NCATS)
